Assay outcomes (PubChem)
Sfp PPTase inh: Sfp phosphopantetheinyl transferase inhibition; Q9F4F7; Biochemical Sfp PPTase activity, qHTS; Potency, µM, for the others: max response, negative = inhibition, actives largely listed as inhibitors; 3.5% of 310,000 active; AID 1490; active = well fitted inhibition curve with a large enough effect; inconclusive = small, poorly fitted or top-dose-only effect, or another doubt; inactive = no such curve, though single readings can be large or run the other way;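 also: the enzyme is Sfp with the accession as filed and its product quenches rhodamine fluorescence; potency is read from the fitted curve at half-maximal effect; 0% = enzyme reaction without inhibitor and -100% = no enzyme wells; top concentration of the series not given in the record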
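Sfp 15 nM + cpd, 15 min RT; start w/ rhodamine-CoA 5 uM, BHQ-2-YbbR 12.5 uM (final); 50 mM Hepes pH 7.6, 10 mM MgCl2, 0.01% NP-40, 0.01% BSA; read 525/598 nm at 0 and 30 min.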
gsp antag: antagonizes gsp, the McCune-Albright syndrome mutation | gsp-mutant cells, cAMP HTRF, 30 min; control for the full effect not named in the record | Potency, µM (doses to about 76.9 µM), for inactives: at the highest dose activity change, negative = inhibition, usual class: inhibitors | 0.4% of 340,000 active; active = falling curve of any shape with a large fitted effect; inconclusive = falling curve, mostly with a smaller effect; inactive = flat or rising curve; cell line not stated here;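 also: intracellular cAMP measured with PDE inhibitor Ro 20-1724 present during compound exposure; potency is read from the fitted curve at half-maximal effect; % is scaled to controls: 0 for no effect and ±100 for the full control effect; nearly all actives have a fitted effect of over 65% in size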
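HTRF cAMP measurement after 30 min RT detection following 30 min, 37C compound treatment alongside […] (added as 300 uM solution) in G418-selected cells seeded at 2000/well and grown 16–24 h.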
gsp agonist: activates gsp, the McCune-Albright syndrome mutation; gsp mutant cells, cAMP HTRF, 30 min; control for the full effect not named in the record; Potency, µM (doses to about 76.9 µM), without a hit: at the top dose activation (cAMP increase), hits mostly activators; 0.13% of 340,000 active; active = well fitted activation curve with a large enough effect; inconclusive = small, poorly fitted or top-dose-only effect, or another doubt; inactive = no such curve, though single readings can be large or run the other way; cell line not stated here;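 also: phosphodiesterase inhibitor Ro 20-1724 added with compounds to block cAMP breakdown; potency is read from the fitted curve at half-maximal effect; nearly all actives have a fitted effect of over 60% in size; about a fifth of the inactives were tested at one dose only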
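Cells stably selected in G418 were plated at 2000/well, grown 16-24 hr, then given compounds in DMSO with the PDE inhibitor […] (300 uM solution added) for 30 min at 37C; cAMP was read by HTRF.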
ClpP mod: qHTS Assay for Activators of ClpP | 1.9% of 340,000 active | Potency, µM (highest dose often 57.5 µM), for the others: top-dose activity change, negative = active | ATP-dependent Clp protease proteolytic subunit (Bacillus subtilis (strain 168)), P80244 | purified B. subtilis ClpP, FRET peptide cleavage, 20 min; active = well fitted falling curve with a large enough effect; inconclusive = small, poorly fitted or top-dose-only effect; inactive = no such curve, though single readings can be large or run the other way; also: potency is read from the fitted curve at half-maximal effect; the source files actives as falling curves though it sought activators and does not explain the sign; nearly all actives have a fitted effect of over 65% in size; many hits overshoot -100%
Target sequence (P80244 whole entry, looked up): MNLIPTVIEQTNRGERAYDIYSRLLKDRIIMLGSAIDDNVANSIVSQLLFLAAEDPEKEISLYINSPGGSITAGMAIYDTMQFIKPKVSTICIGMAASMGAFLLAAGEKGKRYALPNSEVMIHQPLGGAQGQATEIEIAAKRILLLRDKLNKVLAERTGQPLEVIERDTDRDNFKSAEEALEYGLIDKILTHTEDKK
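Purified B. subtilis ClpP, 10 microg/mL final in Tris/HCl pH8 with KCl, BSA, glycerol and Tween-20, cleaved an Abz/nitrotyrosine-quenched decapeptide. Fluorescence (ex 320, em 430) was read at 0 and 20 min at room temperature. Delta was normalized to 5.8 microM ADEP and DMSO/no-enzyme controls.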
TRPV1 potentiator: enhances activation of the human vanilloid receptor TRPV1 | Q8NER1 | TRPV1-expressing cells, Fluo-8 calcium influx, capsaicin EC20 potentiation; host cell line not named in the record; control for the full effect not named in the record | potentiation, % at 8.33 µM | 0.02% of 320,000 active; active means potentiation above 80%; inconclusive means 30% to 80%; inactive means below 30%; also: 0% is about no effect
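Fluo-8 calcium influx in TRPV1-expressing cells, kinetic read (ex 480/em 520 nm). Compound added and read 3 min for agonist activity, followed by capsaicin at EC20 final and 2 min further read for enhancement.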
TRPML1 inh: human mucolipin-1 channel inhibition; Q9GZU1; TRPML1-inducible cells, Ca2+ dye fluorescence, FDSS; active compounds read low; inhibition of EC80 agonist-evoked calcium signal; activity change, negative = inhibition, % (concentration not given with the values); 0.02% of 390,000 active; in the data active means activity change below about -50%; inconclusive means about -30% to -50%; inactive means above about -30%;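 also: stimulus is agonist 54-4 at its EC80 concentration; % is scaled to controls: 0 for no effect and ±100 for the full control effect; the text of the record puts the active cut at -80%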
Target sequence (Q9GZU1 whole entry, looked up): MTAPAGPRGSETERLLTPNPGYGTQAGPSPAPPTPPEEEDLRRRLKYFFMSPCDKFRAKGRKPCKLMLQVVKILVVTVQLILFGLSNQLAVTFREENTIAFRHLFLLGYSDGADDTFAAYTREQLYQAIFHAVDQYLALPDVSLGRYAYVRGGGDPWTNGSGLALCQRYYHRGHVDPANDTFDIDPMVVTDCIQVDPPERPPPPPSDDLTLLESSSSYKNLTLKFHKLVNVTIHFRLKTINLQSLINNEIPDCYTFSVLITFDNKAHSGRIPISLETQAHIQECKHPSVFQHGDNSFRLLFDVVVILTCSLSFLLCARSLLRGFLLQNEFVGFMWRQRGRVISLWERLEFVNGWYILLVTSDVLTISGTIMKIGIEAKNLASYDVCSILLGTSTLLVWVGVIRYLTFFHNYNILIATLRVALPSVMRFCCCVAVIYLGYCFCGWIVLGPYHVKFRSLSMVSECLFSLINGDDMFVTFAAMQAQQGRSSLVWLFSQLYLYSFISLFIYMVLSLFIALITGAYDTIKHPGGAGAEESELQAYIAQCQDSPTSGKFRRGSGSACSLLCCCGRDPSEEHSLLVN
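TRPML1-DL cells, Tet-induced overnight (~16 h, 37 °C) at 1,500 cells/well, were loaded with Ca8 no-wash dye plus quencher for 45-90 min at room temperature. Compounds were pinned during FDSS kinetic reading; agonist 54-4 at EC80 (4 uM final) then added.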
Menin-MLL FL inh: inhibitors of human menin-MLL interaction, wild-type MLL peptide; 290,000 tested, under 10 active; FP activity change, % at 61.4 µM; Fluorescence polarization, fluorescein-MLL peptide displacement from menin; inconclusive = falling polarisation curve, or a change in total fluorescence; inactive = total fluorescence flat and polarisation flat or rising; no compound was filed as active; the % refers to the polarisation; negative = inhibition;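 also: % of control where 0% means no effect; inhibitors lower the polarisation; unlabelled MLL peptide was the positive control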
Starred values were filed as active, the others as inactive; ? = inconclusive; . = no result given; & = joins results of further samples; [ ] = dose if it differs, or a comment. An unsorted share of the library; 4.9% or so of the library scored in one or more.

SMILES	Sfp PPTase inh	gsp antag	gsp agonist	ClpP mod	TRPV1 potentiator	TRPML1 inh	Menin-MLL FL inh
O=C(O)CC12CC3CC(C1)CC(n1ncc(NCc4ccco4)c(Cl)c1=O)(C3)C2	-27%	5%	31%[15.4 µM]	.	-13	51	-16
CN(C)C(=O)CN1CCN(Cc2nc(CC3CC3)no2)CC1	23%	7%	25%[15.4 µM]	.	-11	6	3.9
O=c1cc2ncc(-n3cc([N+](=O)[O-])cn3)cn2[nH]1	4%	-7%	65%	1.3%	-22	10	-1.8
Cc1cccc(N(CC(=O)NC2CCCC2)C(=O)CCC(=O)Nc2nc(C)cs2)c1	16%	-3%	0%	.	2	-1	0.6
CN(CC(=O)N1CCCC1)S(=O)(=O)c1cc(Cl)ccc1Cl	10%	3%	-9%	0.0%	-13	6	2.1
CN(C)S(=O)(=O)c1cc(C(=O)NCC2CCCO2)c(Cl)cc1Cl (stereo not given)	4%	10%	8%	1.3%	0	-8	-6.3
COc1cc(/C=C/c2ccc3cccc([N+](=O)[O-])c3n2)ccc1OCC#N	9%	-13%	14%	.	1	11	7.7
O=C(N/C=N/OCc1cccc(C(F)(F)F)c1)N1OC[C@@H]2COc3ccc4ccccc4c3[C@@H]21	10%	1%	-24%	?	-4	-9	2.8
CCCOc1ccc(C(CC(=O)O)NC(=O)CC(c2ccccc2)c2ccccc2)cc1 (stereo not given)	-3%	-14%	1%[15.4 µM]	.	3	0	4.4
COc1ccc(C#Cc2c(-c3ccccc3)n(C)c3ccccc23)cc1	.	-8%	-2%	4.3%	.	-8	.
CCOC(=O)[C@@H]1[C@H]2COc3cc(OC)ccc3[C@@H]2N2C(=O)N(c3ccccc3)C(=O)[C@]12C	.	-2%	-8%	-1.9%	.	-19	.
CCOc1ccc2oc(C(=O)OCC(=O)NC(=O)NC)c(C)c2c1	7%	8%	11%	-28%	17	-16	7.5
CCOc1cc(C(=O)Nc2ccc(N3CCOCC3)cc2)cc(Br)c1OC	25%	1%	-3%[15.4 µM]	.	28	20	-0.2
O=C(NCCC1CCCCN1S(=O)(=O)c1ccc(Cl)cc1)C(=O)NCc1ccncc1 (stereo not given)	.	2%	29%[15.4 µM]	.	7	0	.
CCc1ccc(C2CC(c3ccccc3)n3ncnc3N2)cc1 (stereo not given)	1%	2%	10%	1.4%	-17	76	3.9
CCOc1ccc(CC(=O)Nc2sc(Cc3ccccc3)c(C)c2C(N)=O)cc1OCC	20µM*	12%	11%	-3.7%	2	-21	15
COc1ccc(-c2noc(N3CCC(C(=O)N(C)c4ccccc4C)CC3)n2)cc1	-12%	?	-13%	2.0%	-3	0	3.7
O=C(Cc1cc(=O)[nH][nH]1)N/N=C/C=C/c1ccccc1	10%&2%	-1%	-59%[inhibitor]	-5.6%	-7	-1	1.9&0.8
CCOC(=O)N1CCN(C(=O)c2c(-c3ccccc3Cl)noc2C)CC1	10%	-3%	-46%[inhibitor]	.	3	10	-2.5
CC1(C)OC(=O)C(=CNc2cccc(O)c2)C(=O)O1	22%	9%	4%	-1.2%	-2	17	-1.1
COc1ccc(CNC(=O)CCNC(=O)N2CC(=O)Nc3ccccc32)cc1	.	.	-4%	-0.8%	.	-6	.
COc1cc(/C=C2/C(=O)c3cccc([N+](=O)[O-])c3C2=O)c(Br)cc1O	20µM*	35µM*	20%	0.8%	0	26	4.5
O=C1CCc2cc(S(=O)(=O)N3CCCCC3)cc3c2N1CCC3	.	6%	13%[15.4 µM]	.	5	-8	.
COc1ccc(OCC(=O)Nc2cccc(NC(=O)c3ccco3)c2)cc1	-11%	27%	-10%	-1.2%	7	3	1.3
Cc1cccc2c1cnn2C(=O)CCC(=O)N1CC(C)CC(C)C1 (stereo not given)	-25%	-5%	-89%[inhibitor]	0.3%	-18	11	1.6
COc1ccc(OC)c(CN(CCCN2CCOCC2)S(=O)(=O)c2ccc(NC(C)=O)cc2)c1	23%	8%	-40%[inhibitor]	-0.5%	-9	-7	1.6
COc1ccccc1NC(=O)c1nn(-c2ccc(Cl)cc2)ccc1=O	-6%	-25%	1%	-7.0%	29	1	1.8
COc1ccc(NC(=O)CNc2cc(C)ccc2C)cc1S(=O)(=O)N1CCOCC1	.	3%	-7%	0.4%	-4	1	.
CN(CCCNC(=O)c1cc2c(=O)[nH]c3ccccc3c2n1C)Cc1ccccc1	11%	8%	-7%	4.5%	8	-1	-3.1
O=C(CCS(=O)(=O)c1ccc(Br)cc1)N1CCN(Cc2ccccc2)CC1	9%	-14%	-2%	0.5%	-10	15	0.8
COc1ccc(OC)c(-c2csc(NC(=O)C3=NN(c4ccccc4)C(=O)CC3)n2)c1	5%	.	-13%[15.4 µM]	.	-3	10	3.7
NNc1nc2cc3c(cc2s1)OCCO3	40µM*	-4%	?	-5.2%	16	5	4.1
Cc1ccc(C(c2nnnn2C2CCCCC2)N2CCc3ccccc32)cc1 (stereo not given)	3%	-18%	-9%	0.4%	1	-3	4.3
CC(C)(C)c1ccc(OCCC(=O)NNC(=O)c2ccccc2)cc1	.	0%	-36%[inhibitor]	-0.1%	-6	2	.
CCCCc1ccc(N/C(N)=N/c2nc(C)cc(C)n2)cc1	0%	?	-16%[15.4 µM]	.	-14	48	-0.2
CCOn1c(=O)c(-c2cccs2)[n+]([O-])c2ccccc21	-7%	-5%	3%	-1.8%	-23	-8	1.2
Cc1nn(-c2ccccc2)c(N2CCCC2)c1/C=N/NC(=O)c1cccc(S(=O)(=O)Nc2ccc(Cl)cc2)c1	15%	-24%	3%	-15%	15	-9	7.1
Cc1ccc(S(=O)(=O)Nc2ccc3nc(C)oc3c2)cc1	.	-10%	4%	?	.	51	.
CCOC(=O)C1(CCOc2ccccc2)CCN(Cc2ccc3nonc3c2)CC1	2%	.	5%[15.4 µM]	.	1	63	2.1
O=C(Nc1ccccc1)C1=C[C@@H](C2CC2)C[C@@H](OCCCCO)O1	8%	2%	.	0.3%	-15	6	1.5
CCN(CC)C(=O)c1sc(NC(=O)c2cc(-c3ccc(C)s3)nc3ccccc23)c(C(=O)OC)c1C	13µM*	-7%	20%	-15%	0	22	6.7
Cc1cc(Nc2ccccc2)c2c([N+](=O)[O-])cc(C)c(C)c2n1	10%	-16%	0%	-0.7%	3	-6	-1.6
CCN(CC)CC(O)CN(c1ccccc1)S(=O)(=O)c1ccc2ccccc2c1 (stereo not given)	1%	7%	21%[15.4 µM]	-1.8%	?	-1	-0.4
O=C(Nc1ccncc1)c1cccc(S(=O)(=O)N2CCCC2)c1	7%	-6%	-3%[15.4 µM]	-1.3%	-8	-5	-2.8
Cc1cccc(NC(=O)C2CCN(S(=O)(=O)c3cccs3)CC2)c1	5%	2%	?	-12%	4	11	-3.0
O=C(NC1CCCCC1)C1CCN(C(=O)c2ccccc2Cl)CC1	6%	9%	-3%	.	4	-3	-0.4
O=C(N/N=C/c1ccc([N+](=O)[O-])o1)c1cn(-c2ccccc2)nc1-c1ccc(Cl)cc1	0%	-4%	14%	0.0%	3	15	11
COc1ccccc1NC(=S)NCCc1ccc(OC)c(OC)c1	-8%	-14%	6%[15.4 µM]	-0.7%	18	20	2.7
COc1ccccc1/C=N/NC1=NCCCCC1	-10%	-11%	?	-3.6%	-5	-5	3.9
Cn1cc(SCC(=O)NCC2CCCO2)c2ccccc21 (stereo not given)	10%	4%	-13%	0.7%	6	4	3.0
Clc1ccc(-n2nnnc2-c2ccccc2)cc1	-21%	-10%	?	-2.4%	7	7	6.3
CN(C)c1ccc(/C=N/NC(=O)c2ccc3c(c2)OCO3)cc1	12%	?	-7%	-4.1%	5	-12	1.6

Rewritten as comma-separated lines: part of the list above.
compound,Sfp PPTase inh,gsp antag,gsp agonist,ClpP mod,TRPV1 potentiator,TRPML1 inh,Menin-MLL FL inh
O=C(Nc1ccccc1)C1=C[C@@H](C2CC2)C[C@@H](OCCCCO)O1,8%,2%,.,0.3%,-15,6,1.5
CCN(CC)C(=O)c1sc(NC(=O)c2cc(-c3ccc(C)s3)nc3ccccc23)c(C(=O)OC)c1C,13µM*,-7%,20%,-15%,0,22,6.7
Cc1cc(Nc2ccccc2)c2c([N+](=O)[O-])cc(C)c(C)c2n1,10%,-16%,0%,-0.7%,3,-6,-1.6
CCN(CC)CC(O)CN(c1ccccc1)S(=O)(=O)c1ccc2ccccc2c1 (stereo not given),1%,7%,21%[15.4 µM],-1.8%,?,-1,-0.4
O=C(Nc1ccncc1)c1cccc(S(=O)(=O)N2CCCC2)c1,7%,-6%,-3%[15.4 µM],-1.3%,-8,-5,-2.8
Cc1cccc(NC(=O)C2CCN(S(=O)(=O)c3cccs3)CC2)c1,5%,2%,?,-12%,4,11,-3.0
O=C(NC1CCCCC1)C1CCN(C(=O)c2ccccc2Cl)CC1,6%,9%,-3%,.,4,-3,-0.4
O=C(N/N=C/c1ccc([N+](=O)[O-])o1)c1cn(-c2ccccc2)nc1-c1ccc(Cl)cc1,0%,-4%,14%,0.0%,3,15,11
COc1ccccc1NC(=S)NCCc1ccc(OC)c(OC)c1,-8%,-14%,6%[15.4 µM],-0.7%,18,20,2.7
COc1ccccc1/C=N/NC1=NCCCCC1,-10%,-11%,?,-3.6%,-5,-5,3.9
